Screening results (PubChem)
VDR inhibitor: inhibitors of human vitamin D receptor. P11473. VDR-SRC2-3 peptide fluorescence polarization, 2 h. Potency, µM, for the others: max response, negative = inhibition, hits mostly inhibitors. 400,000 compounds, 0.93% hits; active = well fitted inhibition curve with a large enough effect; inconclusive = small, poorly fitted or top-dose-only effect, or another doubt; inactive = no such curve, though single readings can be large or run the other way; also: series mostly up to about 120 µM
Target sequence (P11473 whole entry, looked up): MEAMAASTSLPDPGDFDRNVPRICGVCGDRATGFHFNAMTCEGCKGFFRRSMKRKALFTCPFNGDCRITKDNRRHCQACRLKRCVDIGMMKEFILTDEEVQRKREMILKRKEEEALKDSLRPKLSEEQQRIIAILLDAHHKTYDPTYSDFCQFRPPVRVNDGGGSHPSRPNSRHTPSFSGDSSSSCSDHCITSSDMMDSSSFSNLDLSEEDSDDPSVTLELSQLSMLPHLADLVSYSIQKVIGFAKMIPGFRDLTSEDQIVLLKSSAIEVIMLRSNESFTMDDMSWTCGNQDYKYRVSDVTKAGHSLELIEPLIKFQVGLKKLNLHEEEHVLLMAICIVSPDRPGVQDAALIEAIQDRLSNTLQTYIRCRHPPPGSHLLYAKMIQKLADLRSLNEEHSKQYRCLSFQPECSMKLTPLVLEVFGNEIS
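FP read-out; VDR + SRC2-3 coactivator peptide; 23 nl compound by pintool; 2 h RT incubation; reagents held at 4 deg C, protected from light.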
* hit, by the source's call; ? = inconclusive; & = joins results of further samples; [ ] = remark or other dose. % is scaled to controls: 0 for no effect and ±100 for the full control effect; potency is read from the fitted curve at half-maximal effect. Only part of the results is shown (hit frequency here may not be typical).

no.	SMILES	VDR inhibitor
1	COc1ccc(-n2nc(C(=O)NCC(=O)NCCCN3CCC(C)CC3)c3ccccc3c2=O)cc1Cl	7%
2	Cc1ccc(-c2csc(Cc3nc(-c4cc5ccccc5oc4=O)cs3)n2)cc1	41%[activator]
3	COc1cc(C(=O)NCCCC2CCCC2)ccc1OC1CCN(C(C)=O)CC1	-5%
4	CCOc1ccc(N2CC(C(=O)Nc3cc(OCC)c(N4CCOCC4)cc3OCC)CC2=O)cc1 (stereo unspecified)	-1%
5	Cc1ccc(NC(=O)N2CCN(c3nnc(C)c4c(C)n(-c5ccc(Cl)cc5)nc34)CC2)c(C)c1	0%
6	COc1ccc(-c2[nH]ncc2CN(C)C(C)c2ccon2)c(OC)c1 (stereo unspecified)	-8%
7	O=C(Nc1cc(Cl)ccc1Cl)P(=O)(O)c1ccccc1	-10%
8	C/C(CCc1ccc2c(c1)OCO2)=N\NC(=O)c1ccc(C)cc1C	-11%
9	Cc1nc2ncccn2c1-c1csc(Nc2ccc(S(N)(=O)=O)cc2)n1	-7%
10	Cc1cc(S(=O)(=O)NC2CCCC2)ccc1F	-13%
11	CN1C(=O)C(CC(=O)N2CCN(C(c3ccccc3)c3ccccc3)CC2)N(C)C1=O (stereo unspecified)	-1%
12	COc1ccc(C(=O)N2CCN(C)C(C)C2)cc1OC1CCN(C(C)=O)CC1 (stereo unspecified)	-4%
13	COc1cccc(N2CC(C(=O)NNC(=O)c3ccc(Cl)cc3)CC2=O)c1 (stereo unspecified)	-17%
14	Cc1cc(S(=O)(=O)N(Cc2ccccn2)Cc2ccco2)ccc1-n1cnnn1	8%
15	CCOC(=O)c1c(C)c(-c2ccccc2)n(CC(=O)N2CCN(C)CC2)c1C	0%
16	COCC(=O)N(Cc1cc2cc(OC)ccc2[nH]c1=O)c1ccc(C)cc1	-14%
17	Cc1cc(C)cc(N(CC(=O)NCc2ccccc2)C(=O)CCC(=O)Nc2ccccn2)c1	9%
18	O=C(NNC1=C(C(=O)C(F)(F)F)CCC1)c1ccccc1Cl	3%
19	COC(=O)Cc1c(O)ccn(Cc2cccc(C(F)(F)F)c2)c1=O	-5%
20	CCN1c2ccccc2-c2nc(SCC(=O)NCc3ccccc3)ncc2S1(=O)=O	19%
21	CCCn1c(SCC(=O)Nc2ccccc2OC)nnc1-c1ccco1	8%
22	COc1cccc(Cn2c(=O)c(-c3cc(F)cc(F)c3)nc3cncnc32)c1	-7%
23	N#C/C(=C\c1c(N2CCN(c3ccccc3)CC2)nc2ccccn2c1=O)S(=O)(=O)c1ccccc1	-1%
24	CC(C)Oc1ccc(CNC(=O)c2cnc3sc(N4CCCC4)nn3c2=O)cc1	9%
25	CCn1nc(C)c(/C=N/NC(=S)Nc2ccc(Cl)cc2Cl)c1C	-14%
26	CCOc1cccc2cc(-c3nc4sc(C(=O)Nc5ccc(C)cc5)c(C)c4c(=O)[nH]3)c(=O)oc12	5%
27	CCn1ccc(C(=O)NC2CCCC2)n1	-1%
28	CCOC(=O)c1c(C)[nH]c(C(=O)CSc2nnc(-c3cccs3)n2Cc2ccccc2)c1C	-2%
29	CCOCCn1[nH]c2ccccc2c1=O	-13%
30	CC(C)C(=O)NC(=S)Nc1ccccc1F	-2%

The final 4 compounds of the part above are carried over, then new ones follow.
no.	SMILES	VDR inhibitor
27	CCn1ccc(C(=O)NC2CCCC2)n1	-1%
28	CCOC(=O)c1c(C)[nH]c(C(=O)CSc2nnc(-c3cccs3)n2Cc2ccccc2)c1C	-2%
29	CCOCCn1[nH]c2ccccc2c1=O	-13%
30	CC(C)C(=O)NC(=S)Nc1ccccc1F	-2%
31	COC(=O)CN(c1cccc(F)c1)S(C)(=O)=O	-9%
32	CN1C(C(=O)Nc2cccc(O)c2)=CC(c2ccco2)=NS1(=O)=O	0%&12%
33	COc1ccc2[nH]c(=O)c(CN(C(=O)c3cccnc3)c3ccc(C)cc3)cc2c1	9%
34	O=C(Cn1c(=O)c2c(ncn2C2CCCC2)n(Cc2ccccc2)c1=O)N1CCc2ccccc21	-5%
35	Cc1ccccc1NC(=O)CSc1c(C(C)C)cnc2c1c(=O)n(C)c(=O)n2C	-9%
36	O=C(COC(=O)CCCC1=NS(=O)(=O)c2ccccc2N1)Nc1ccc(Br)cc1	-16%&11%
37	COc1cccc(C2C(C(=O)Nc3ccccc3)=C(C)Nc3nnnn32)c1OC (stereo unspecified)	-14%
38	COc1c(C)cc(C(=O)C2CCCN(C(=O)c3cc4nc(C)cc(C)n4n3)C2)cc1C (stereo unspecified)	10%
39	COc1ccc(OC)c(Nc2cc(C)nc3ccc(C)cc23)c1	-4%
40	O=C1CCc2cc(S(=O)(=O)N3CCN(c4ccccc4)CC3)cc3c2N1CCC3	-13%
41	O=c1cc(-c2ccc(C3CCCCC3)cc2)[nH][nH]1	-22%
42	CN(C)c1ccc(N=Nc2ccccc2C(=O)OCC(=O)N2CCCC2)cc1	13%
43	CCOC(=O)c1ccc(N2C(=O)c3n[nH]c(-c4ccco4)c3C2c2ccc(C)cc2)cc1 (stereo unspecified)	-23%
44	Cc1ccccc1Cn1c(=O)n(CCCC(=O)NCc2ccco2)c(=O)c2sccc21	-1%
45	Cc1ccc([N+](=O)[O-])cc1NC(=O)CN(C(=O)c1ccccc1Cl)C1CCCCC1	3%
46	COc1ccccc1-n1cnc2cc(NCc3ccccn3)ccc21	1%
47	CCN(C[C@H]1N[C@@](C)(C(=O)OC)[C@H]2C(=O)N(Cc3ccccc3)C(=O)[C@@H]12)C(=O)Nc1ccc(F)cc1	15%
48	CCSc1nnc(-c2ccc(Cl)cc2)c2ccccc12	-11%
49	COc1ccc(C2CC(c3ccc(C)cc3)Nc3ncnn32)cc1 (stereo unspecified)	-8%
50	COc1cc(O)ccc1-c1nc2ccc(Br)cn2c1Nc1ccccc1C	-4%
51	CC(=O)NC(c1ccc(F)cc1)c1cccnc1 (stereo unspecified)	-12%
52	COc1ccc(Br)cc1CN(C)CC(=O)Nc1cc([N+](=O)[O-])ccc1OC	2%
53	CCCC1=NN2C(=N)/C(=C\c3ccc(OCCOc4ccc(NC(C)=O)cc4)c(OC)c3)C(=O)N=C2S1	-10%
54	COc1ccccc1CCC(=O)N(C)CC(=O)Nc1ccc(Cl)c(C(F)(F)F)c1	21%
55	CS(=O)(=O)c1ccc(C(=O)Nc2ccc(-c3nc4ccccc4[nH]3)cc2)cc1	-9%
56	COCCn1c(C(C)C)nc2sc3ccccc3c(=O)c2c1=O	17%
57	COc1ccc(CC(=O)NCCS(=O)(=O)N2CCN(c3ccccc3F)CC2)cc1OC	9%
58	C#CCOCCOCCOCCNc1nc(N2CCN(C(=O)CCCCCCCCCCNC(=O)[C@H]([C@@H](C)CC)n3cc(CCCCN=C(N)N)nn3)CC2)nc(N2CCN(C(=O)CCCCCCCCCCNC(=O)[C@H](CCCCN)n3cc(C)nn3)CC2)n1	45%[activator]
59	COc1ccc(CCNc2nc(C)cc(C)c2C#N)cc1OC	0%
60	Cc1cc(C)c(NC(=O)CN(C)C(C)C(=O)N2CCc3ccccc32)c(C)c1 (stereo unspecified)	10%
61	COc1ccc2[nH]cc(CCNC(=O)c3ccco3)c2c1	-4%
62	CC(OC(=O)c1nsc(Cl)c1Cl)C(=O)NCCc1ccccc1 (stereo unspecified)	-5%
63	CC1=NN(c2ccccc2)C(=O)/C1=C/C=C/C=C/N(C)C	-5%
64	COc1ccc(C(=O)N=c2sc3cc(Cl)ccc3n2C)cc1	-19%
65	Cc1ccc(C2=CC(c3c(F)cccc3Cl)n3ncnc3N2)cc1C (stereo unspecified)	-5%
66	CC(=O)c1cccc(NC(=O)COC(=O)c2ccccc2C)c1	-1%
67	C=CCC(O)(CC=C)CNC(=O)C1CCC(=O)N(CCCc2ccccc2)C1 (stereo unspecified)	0%
68	O=c1c2cccc3c2c(nn1CN1CCOCC1)-c1ccccc1-3	-1%
69	COC(=O)CCC(=O)N1CN2CN(C(=O)CCC(=O)OC)CC([N+](=O)[O-])(C2)C1	-8%
70	COc1ccc(N(C(=O)CNC(=O)c2cccs2)C(C(=O)NCC2CCCO2)c2ccccc2)cc1 (stereo unspecified)	6%
71	O=C(Nc1cc2c3c(c1)CC(=O)N3CCC2)C1CCCCC1	-11%
72	Cc1ccc(S(=O)(=O)N2CCN(C(=O)c3ccco3)CC2)cc1	?
73	CC(C)CCOc1ccc(C2(C)NC(=O)NC2=O)cc1 (stereo unspecified)	18%
74	COc1ccccc1C(=O)Nc1ccc(S(=O)(=O)N2CCN(C)CC2)cc1	-7%
75	CCCS(=O)(=O)c1cscc1NC(=O)c1c(-c2c(F)cccc2Cl)noc1C	-4%
76	CCC/C=C/C(C)O (stereo unspecified)	2%
77	COc1ccc(CCNC(=O)CNCC2CCCCC2)cc1OC	2%
78	COc1ccc(CCC(=O)NCCc2csc(-c3cccc(C)c3)n2)cc1	-6%
79	Cc1n(N)c2ccccc2[n+]1CC(=O)c1ccccc1	-12%
80	CCC[C@@H]1CCCO[C@@](C(=O)NCc2ccc(S(C)(=O)=O)cc2)(C(F)(F)F)C1	0%&4%
81	COc1cc(-c2nnc(SCC(=O)Oc3ccccc3Cl)o2)cc(OC)c1OC	6%
82	CCOc1cc(-n2cnnn2)c(OCC)cc1NC(=O)c1cnccn1	9%
83	CC1(C)SC(=S)N(/N=C/c2cccnc2)C1N(O)C(=O)Nc1ccccc1 (stereo unspecified)	-4%
84	N#CCSc1nc2c(cc1C#N)CCCCCC2	-13%
85	Cc1ccc(OCc2csc(N)n2)cc1	1%
86	C/C(=C\C(=O)c1cccnc1)Nc1ccc(C)c(C)c1	-9%
87	O=C(CCCc1ccccc1)Nc1ccc2c(c1)OCCO2	6%
88	COc1ccc(-c2nc3scc(CCNS(=O)(=O)c4ccccc4F)n3n2)cc1	9%
89	Cc1ccc(NC(=O)c2ccccc2-c2ccccc2C(=O)O)cc1	-18%
90	CC1(C)C(=O)C2(CCCCC2)C(=O)OC1C(=O)c1ccccc1 (stereo unspecified)	-10%

An excerpt of these results, with each value named:
62	CC(OC(=O)c1nsc(Cl)c1Cl)C(=O)NCCc1ccccc1 (stereo unspecified)
  VDR inhibitor: -5%
63	CC1=NN(c2ccccc2)C(=O)/C1=C/C=C/C=C/N(C)C
  VDR inhibitor: -5%
64	COc1ccc(C(=O)N=c2sc3cc(Cl)ccc3n2C)cc1
  VDR inhibitor: -19%
65	Cc1ccc(C2=CC(c3c(F)cccc3Cl)n3ncnc3N2)cc1C (stereo unspecified)
  VDR inhibitor: -5%

Going on with the list:
no.	SMILES	VDR inhibitor
91	CN(C)CCCN(C(=O)c1ccco1)c1nc(-c2ccc(Cl)cc2)cs1	6%
92	COCCn1c(SCC(=O)Nc2sc(C)c(C)c2C#N)nnc1C(C)C	?
93	Cc1cc(C)c(C(=O)/C=C/c2ccc3c(c2)OCO3)c(=O)[nH]1	-16%
94	O=C(NNC(=O)c1cc(S(=O)(=O)N2CCOCC2)c(Cl)cc1Cl)c1ccccc1F	9%
95	O=C(OCc1nnc(-c2ccccc2)o1)c1ccc(S(=O)(=O)NCc2ccco2)cc1	-17%
96	COc1ccc(NC(=O)CN(C)C(=O)c2cc(-c3ccccc3)nc3ccccc23)cc1	-10%
97	Cn1ncc([N+](=O)[O-])c1C(=O)Nc1ccc(-c2ccccc2)cc1	5%
98	COc1cc(NC(=S)NC(=O)c2cccs2)ccc1NC(=O)C(C)C	5%
99	Cc1ccc(-n2ncc3c(=O)n(CC#N)cnc32)cc1	0%
100	CCCCN1C(=O)C(=O)NC[C@@H]1C(C)O (stereo partly specified)	12%
101	COc1cc(-n2c(=O)c3ccccc3n(Cc3ccccc3)c2=O)cc(OC)c1OC	14%
102	O=C(c1ccncc1)N1CCC2(CCCN(c3ncccn3)C2)CC1	0%
103	Cc1cc(Cl)cc(Cl)c1CNc1c([N+](=O)[O-])c(=O)oc2ccccc12	-6%
104	CSc1nnc(N2C(=O)C(O)=C(C(=O)c3ccco3)C2c2ccccc2)s1 (stereo unspecified)	?
105	O=S(=O)(N/N=C1\CCCc2ccccc21)c1ccccc1	-10%
106	Cc1cccc(C)c1NC(=O)CN1N=NC2C(=O)N(c3cccc(Cl)c3)C(=O)C21 (stereo unspecified)	-2%
107	COc1ccc(Cn2c(O)c(C=Nc3ccc(OC)cc3)c3ccccc3c2=O)cc1	-11%
108	CSc1nnc(C2CCCN(CC(=O)Nc3ccccc3N3CCOCC3)C2)n1C(C)C (stereo unspecified)	6%
109	COC(=O)Cc1ccc(NC(=S)NCCSc2ccc(Cl)cc2)cc1	10%
110	COC(=O)c1sc(S(=O)(=O)N2CCCCC2C(=O)O)c(C(=O)OC)c1C (stereo unspecified)	6%
111	Cc1cccc(C)c1OCc1cc(C(=O)N2CC3C[C@@H]4CC2C[C@H](C3)C4)no1	-7%
112	O=C(CSC1=NCCS1)c1ccc(Cl)cc1	79µM*
113	O=C(NC1CCCCC1)C(c1ccco1)N(CCc1ccccc1)C(=O)C(F)(F)F (stereo unspecified)	6%
114	O=C(O)/C=C/S(=O)(=O)c1ccc2ccccc2c1	-18%
115	CCn1c2ccccc2c2cc(C3C(C#N)=C(N)Oc4n[nH]c(COC)c43)ccc21 (stereo unspecified)	-24%
116	CCOC(=O)CC1(NC(=O)C2CCC(=O)N(CCc3ccc(OC)cc3)C2)CCCCC1 (stereo unspecified)	8%
117	CCOc1ccc(CNc2nc3ccccc3n2C)cc1	2%
